Screening results as filed in PubChem BioAssay.
Insulin prom inh: TRM-6 insulin promoter activity inhibition | TRM-6 cells (human fetal islet line), insulin promoter-eGFP reporter, imaging; reporter expression induced with tamoxifen | inhibition, % at 2 µM | 130,000 tested, 0.9% active | AID 1273;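 active means inhibition above the mean plus 3 SD, with well images judged a real hit on visual review, cut at about 60% in these data, passing the limit was not always enough; inconclusive means inhibition over the cutoff but images rejected on review; inactive means inhibition not above the cutoff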
HSV augment: increases HSV replication in cells. HSV replication augmentation in cells, fold increase. maximum fold increase. 220,000 tested, 0.005% active. AID 1956;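 active means peak rise of 1.5-fold or more in the series; inconclusive means self-fluorescent or not available for retest; tested in PC3 cells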;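 further: first round at 10 µM; read as green reporter fluorescence; hits show the peak of a series up to 25 µM; 1 = signal of infected wells without compound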
RGS16-Gao HTS: RGS16-Galphao interaction regulator (human). 220,000 tested, 0.38% active. bead-based flow cytometry RGS16-Galphao binding, fluorescence; actives lie on both sides. binding response (% of control), % at 10 µM;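 active means below 25% or above 175%, edge rows of some plates excepted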;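 further: Galphao activated by GDP with aluminum fluoride before binding; 100% = wells without compound and 0% = beads without RGS; some results beyond the cut were filed as inactive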
Target sequence (O15492 whole entry, looked up): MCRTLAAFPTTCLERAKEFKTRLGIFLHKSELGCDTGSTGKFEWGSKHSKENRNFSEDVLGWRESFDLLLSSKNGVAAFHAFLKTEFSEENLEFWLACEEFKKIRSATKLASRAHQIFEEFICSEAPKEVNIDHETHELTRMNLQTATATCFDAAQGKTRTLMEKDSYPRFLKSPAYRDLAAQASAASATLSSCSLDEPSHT
Target sequence (P09471 whole entry, looked up): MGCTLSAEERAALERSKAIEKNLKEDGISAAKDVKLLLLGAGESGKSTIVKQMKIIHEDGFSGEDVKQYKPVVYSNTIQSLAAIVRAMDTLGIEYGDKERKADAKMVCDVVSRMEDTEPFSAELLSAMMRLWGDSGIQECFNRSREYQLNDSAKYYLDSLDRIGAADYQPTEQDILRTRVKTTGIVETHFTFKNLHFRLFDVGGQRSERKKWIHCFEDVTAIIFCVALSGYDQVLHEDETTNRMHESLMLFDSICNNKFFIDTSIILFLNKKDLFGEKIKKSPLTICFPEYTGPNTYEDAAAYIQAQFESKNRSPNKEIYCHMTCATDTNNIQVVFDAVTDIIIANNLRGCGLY
PKD1 inh: PKD1 (human) kinase inhibition; Q15139; 200,000 tested, 0.056% active; AID 797; inhibition, %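 (about 10 µM by stock and volumes)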; PKD1 kinase fluorescence polarization assay;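 active means inhibition of 50% or more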;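 further: controls were vehicle for no effect and a reference inhibitor for full effect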
GALR2 ag: GALR2 (human) receptor agonism; O43603; GALR2-expressing cells, agonist activation read-out; 140,000 tested, 0.48% active; activation, %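 (tested at 5 µM)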;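 active means above mean plus 3 SD of all compounds, about 5% in these data, not always enough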;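 further: 0% = vehicle buffer wells and 100% = reference agonist at full effect; tested in CHO reporter cells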
Target sequence (O43603 whole entry, looked up): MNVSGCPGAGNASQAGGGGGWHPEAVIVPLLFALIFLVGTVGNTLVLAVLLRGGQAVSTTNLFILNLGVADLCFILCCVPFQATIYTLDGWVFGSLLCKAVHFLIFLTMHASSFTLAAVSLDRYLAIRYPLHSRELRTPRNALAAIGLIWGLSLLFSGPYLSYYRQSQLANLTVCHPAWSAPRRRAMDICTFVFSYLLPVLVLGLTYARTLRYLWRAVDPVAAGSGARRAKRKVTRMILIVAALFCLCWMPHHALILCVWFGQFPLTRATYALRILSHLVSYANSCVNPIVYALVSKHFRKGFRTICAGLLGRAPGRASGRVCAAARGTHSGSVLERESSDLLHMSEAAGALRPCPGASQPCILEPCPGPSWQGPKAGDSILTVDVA
Insulin prom inh cell count: also measured in Insulin prom inh; calls as there; normalized cell count, %; measured here: cell count, toxicity; reference of the scale not given here;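 cells exposed to compound for 48 h; stained nuclei by imaging scaled within each plate; lower means fewer cells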
HSV augment primary fold: further read-out of HSV augment, marked with its call; fold increase; compound at 10 µM; measured here: primary screen fold increase 10 uM; tested in PC3 cells;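 GFP signal in the first replicate; 1 = infected wells without compound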
* = called active by the depositor; i = inactive; ? = inconclusive; nt = not tested or not shown; & = joins results of further samples.

Assay codes – A = Insulin prom inh; B = Insulin prom inh cell count; C = HSV augment; D = HSV augment primary fold; E = RGS16-Gao HTS; F = PKD1 inh; G = GALR2 ag
O=C(COC(=O)c1cccs1)Nc1ccccc1C(F)(F)F
  A: 21; B: 48; C: i; D: 1; E: 101; F: -2; G: nt
CN1CCc2c(C#N)c(N3CCCCC3)nc(NCc3ccccc3)c2C1
  A: -14; B: 107; C: i; D: 1; E: 102; F: -6; G: 2.8
COc1ccc(N2C(=O)CC(N3CCN(S(=O)(=O)c4c(F)cccc4F)CC3)C2=O)cc1OC (centres undefined)
  A: -8; B: 103; C: i; D: 0.92; E: 103; F: 6; G: -0.7
Cn1cc(/C=C(\C#N)C(=O)Nc2ncc(Cc3cccc(Cl)c3)s2)c2ccccc21
  A: nt; B: nt; C: i; D: 0.97; E: 146; F: -4; G: -0.2
CC1CC(=O)N(c2ccc(NCCc3ccc(O)cc3)c([N+](=O)[O-])c2)C1=O (centres undefined)
  A: nt; B: nt; C: i; D: 1; E: 97; F: 1; G: nt
Cc1ccc(C(=O)NCCSc2ccc(Cl)cc2)cc1S(=O)(=O)Nc1ccccc1
  A: -21; B: 86; C: i; D: 0.79; E: 105; F: -10; G: -2.6
CCOc1cc(C)c(S(=O)(=O)Nc2ccc(Cl)cn2)cc1C
  A: -75; B: 111; C: i; D: 1.2; E: 107; F: -4; G: -2.7
Cc1cccc(NC(=O)c2ccc(-c3ccccc3[N+](=O)[O-])o2)c1
  A: nt; B: nt; C: i; D: 0.83; E: 104; F: -6; G: nt
O/N=C1/CC/C(=N\O)c2nn(-c3ccccc3)nc21
  A: 54; B: 91; C: i; D: 0.85; E: 101; F: 15; G: -0.8
CCn1cc(C(=O)OC)c(=O)c2ccc(C)nc21
  A: -14; B: 67; C: i; D: 1; E: 98; F: -7; G: nt
COc1ccc(/C=C(/NC(=O)c2ccccc2)c2nc3ccc(Cl)cc3[nH]2)cc1OC
  A: -25; B: 124; C: i; D: 0.76; E: 102; F: 2; G: -0.4
Cc1cc(=O)oc2cc(OCCSc3nnc(-c4ccccc4)o3)ccc12
  A: 6; B: 129; C: i; D: 0.98; E: 112; F: -1; G: 0.0
CCCc1nnc(NC(=O)CCC(=O)N2CCN(S(=O)(=O)c3ccc(C)cc3)CC2)s1
  A: nt; B: nt; C: i; D: 1.1; E: 107; F: nt; G: nt
Cc1ccc(CN2CCN(Cc3c(C)nn(-c4ccc(F)cc4)c3C)CC2CCO)o1 (centres undefined)
  A: nt; B: nt; C: i; D: 0.89; E: 105; F: -6; G: nt
C=CCOC(=O)C1=C(C)OC(N)=C(C#N)C1c1ccc(OC)c(CSc2ccccn2)c1 (centres undefined)
  A: nt; B: nt; C: i; D: 0.99; E: 88; F: -7; G: 0.6
CC1(C)C2CCC1(C)C(OC(=O)c1ccccc1C(=O)O)C2 (centres undefined)
  A: nt; B: nt; C: i; D: 1; E: 104; F: nt; G: nt
COc1ccc(C(=O)/C=C\c2ccc(NC(=O)c3cccs3)cc2)cc1
  A: 28; B: 144; C: i; D: 0.94; E: 99; F: 13; G: -0.7
O=C(NCCN1C(=O)S/C(=C\c2cccs2)C1=O)[C@H](Cc1ccccc1)N1C(=O)c2ccccc2C1=O
  A: -11; B: 107; C: i; D: 0.71; E: 102; F: -14; G: -1.4
O=C1CCC(=O)N1OCCCOc1ccccc1
  A: 11; B: 194; C: i; D: 0.85; E: 83; F: -7; G: -0.1
Cc1occc1C(=O)Nc1cc(C(F)(F)F)ccc1Cl
  A: -3; B: 133; C: i; D: 0.87; E: 51; F: 0; G: -0.8

Sorted by count of non-hydrogen atoms (high to low): some entries from above
Assay codes – A = Insulin prom inh; B = Insulin prom inh cell count; C = HSV augment; D = HSV augment primary fold; E = RGS16-Gao HTS; F = PKD1 inh; G = GALR2 ag
O=C(NCCN1C(=O)S/C(=C\c2cccs2)C1=O)[C@H](Cc1ccccc1)N1C(=O)c2ccccc2C1=O
  A: -11; B: 107; C: i; D: 0.71; E: 102; F: -14; G: -1.4
C=CCOC(=O)C1=C(C)OC(N)=C(C#N)C1c1ccc(OC)c(CSc2ccccn2)c1 (centres undefined)
  A: nt; B: nt; C: i; D: 0.99; E: 88; F: -7; G: 0.6
CCCc1nnc(NC(=O)CCC(=O)N2CCN(S(=O)(=O)c3ccc(C)cc3)CC2)s1
  A: nt; B: nt; C: i; D: 1.1; E: 107; F: nt; G: nt
COc1ccc(C(=O)/C=C\c2ccc(NC(=O)c3cccs3)cc2)cc1
  A: 28; B: 144; C: i; D: 0.94; E: 99; F: 13; G: -0.7
O=C1CCC(=O)N1OCCCOc1ccccc1
  A: 11; B: 194; C: i; D: 0.85; E: 83; F: -7; G: -0.1

The list goes on:
Assay codes – A = Insulin prom inh; B = Insulin prom inh cell count; C = HSV augment; D = HSV augment primary fold; E = RGS16-Gao HTS; F = PKD1 inh; G = GALR2 ag
O=C(NNC(=O)c1n[nH]c(=O)c2ccccc12)c1ccc(Br)cc1
  A: nt; B: nt; C: i; D: 1.1; E: 94; F: nt; G: nt
O=S(=O)(c1ccc(F)cc1)N1CCN(c2ccccc2)CC1
  A: 25; B: 89; C: i; D: 0.83; E: 102; F: -4; G: -1.6
CC1CCC2C(=O)N(c3ccccc3OC(=O)c3ccccc3)C(=O)C2C1 (centres undefined)
  A: nt; B: nt; C: nt; D: nt; E: 101; F: 2; G: -2.8
O=C(COn1nnc2ccc(C(F)(F)F)cc21)Nc1nnc(-c2ccccc2)o1
  A: 9; B: 124; C: i; D: 0.96; E: 100; F: 3; G: -2.3
COc1ccc(C(=O)NCC(O)COc2ccc(C(C)(C)C)cc2)cc1[N+](=O)[O-] (centres undefined)
  A: -22; B: 83; C: i; D: 0.77; E: 104; F: -16; G: -1.2
N#C/C(=N\O)c1nc(-c2ccccc2)cs1
  A: 36&14; B: 130&156; C: i; D: 0.84&0.81; E: 90&98; F: -1&-3; G: -2.0&-0.2
Cc1ccccc1-n1ccnc1SCC(=O)O
  A: 34; B: 170; C: i; D: 1; E: 101; F: -8; G: -2.5
CCn1c(=O)c(C(=O)CN(C)Cc2cccc(OC)c2OC)c(N)n(Cc2ccccc2)c1=O
  A: -31; B: 29; C: i; D: 1.1; E: 107; F: 2; G: -0.6
COc1cccc(C2=NOC(C(=O)Nc3cccnc3)C2)c1 (centres undefined)
  A: 45; B: 112; C: i; D: 1; E: 102; F: -1; G: -0.4
CCCn1c(C)cc(/C=C(\C#N)C(=O)OCC(=O)Nc2cccc(OC)c2)c1C
  A: 26; B: 93; C: i; D: 1.1; E: 55; F: -10; G: -0.2
Cc1cnc(C(=O)Nc2nc(-c3ccccc3)cs2)cn1
  A: nt; B: nt; C: i; D: 0.97; E: 102; F: -8; G: -1.6
O=C(NCc1ccccc1F)c1ccc(S(=O)(=O)Nc2cccc(C(F)(F)F)c2)cc1
  A: nt; B: nt; C: i; D: 0.94; E: 112; F: 3; G: -1.6
CC1CN(c2oc(-c3cccs3)nc2C#N)CC(C)O1 (centres undefined)
  A: nt; B: nt; C: i; D: 0.96; E: 94; F: 6; G: -1.8
COc1ccc(C)cc1N(C(=O)c1ccccc1)c1nc2ccccc2s1
  A: -6; B: 105; C: i; D: 1.1; E: 117; F: 5; G: -0.8
CC(=O)c1c(C)[nH]c(C(=O)CSc2nnc(-c3cccs3)n2Cc2ccccc2)c1C
  A: -31; B: 77; C: i; D: 1; E: 101; F: -5; G: -1.9
COc1ccc(-n2cc(-c3ccc(Cl)cc3)[nH]c2=S)cc1
  A: nt; B: nt; C: i; D: 0.86; E: 97; F: nt; G: nt
O=C(/C=C/c1cccc(Cl)c1)N1CCC(Cc2ccccc2)CC1
  A: -42; B: 112; C: i; D: 0.91; E: 103; F: -6; G: -0.7
Cc1onc(-c2c(F)cccc2Cl)c1C(=O)N1CCCc2ccccc21
  A: nt; B: nt; C: i; D: 0.82; E: 114; F: -6; G: -0.1
N#Cc1ccc(C(=O)Nc2nnc(-c3ccco3)o2)cc1
  A: -44; B: 145; C: i; D: 1; E: 107; F: 3; G: nt
Cc1ccccc1N1CCN(c2ncnc3scc(-c4cccs4)c23)CC1
  A: 40; B: 138; C: i; D: 0.85; E: 106; F: -7; G: -0.7
COc1ccc(S(=O)(=O)N(CC(=O)NCc2ccco2)c2ccccc2)cc1OC
  A: nt; B: nt; C: i; D: 0.93; E: 109; F: -12; G: -1.0
CCOC(=O)C1(C)C=C(Nc2ccc(O)cc2)C(=O)N1c1ccc(O)cc1 (centres undefined)
  A: -53; B: 92; C: i; D: 0.86; E: 100; F: -17; G: -0.9
COc1ccc(-c2cc(C(=O)Nc3c(C)nn(Cc4ccc(Cl)cc4)c3C)no2)cc1
  A: -14; B: 169; C: i; D: 0.67; E: 165; F: 5; G: -1.5
Cc1cc(C)c(C(=O)CSc2nnc(N)s2)c(C)c1
  A: nt; B: nt; C: i; D: 1.1; E: 107; F: -3; G: nt
COc1ccccc1C(=O)N/N=C/c1ccc(Cl)s1
  A: 27; B: 141; C: i; D: 0.99; E: 103; F: -3; G: -0.5
CC(=O)N(CC(C)(C)CC=C(C)C)c1ccccc1
  A: 65*; B: 125*; C: i; D: 0.84; E: 100; F: 0; G: -0.4
CCCNC(=O)/C=C/c1ccc(S(=O)(=O)Nc2ccccc2OC)cc1
  A: 0; B: 102; C: i; D: 1; E: 103; F: 0; G: nt
Cc1ccc(NC(=O)C(=O)NCc2ccco2)c(C)c1
  A: nt; B: nt; C: i; D: 0.94; E: 101; F: -3; G: nt
O=C(O)c1ccc(COc2ccc(Cl)cc2)o1
  A: -8; B: 114; C: i; D: 1.2; E: 99; F: 3; G: -2.5
CN1CCC2(CC1)NC(=O)NC2=O
  A: -9; B: 68; C: i; D: 1; E: 105; F: -6; G: 0.2
CCOC(=O)c1nn(-c2ccccc2)c(C#N)c1NC(=O)c1nn(CC)cc1Br
  A: 68; B: 132; C: i; D: 0.86; E: 98; F: 10; G: -2.0
Cc1cccc(C)c1NC(=O)C(NC=O)c1ccc(Cl)cc1 (centres undefined)
  A: -42; B: 98; C: i; D: 0.86; E: 97; F: -5; G: -2.7
COC(=O)c1ccc(/C=N/NC(=O)CC(=O)NC2CCCCC2)cc1
  A: -62; B: 103; C: i; D: 1.1; E: 102; F: 0; G: nt
O=C(N/N=C/c1ccc(Cl)c([N+](=O)[O-])c1)C1CC1
  A: -33; B: 32; C: i; D: 0.87; E: 113; F: 0; G: nt
Cc1ccc(-c2nc(SCC(=O)Nc3cc(S(=O)(=O)N4CCCCC4)ccc3Cl)n[nH]2)cc1
  A: -57; B: 174; C: i; D: 0.82; E: 93; F: 6; G: -0.5
C=CCC(O)(CCN1CCCCC1)c1ccccc1 (centres undefined)
  A: -32; B: 109; C: i; D: 0.82; E: 103; F: 2; G: -2.5
CCOC(=O)C1=NN(N=O)C2(CC(=O)N(c3cc(C)cc(C)c3)C2=O)C1 (centres undefined)
  A: 28; B: 154; C: i; D: 1.1; E: 107; F: -5; G: -3.1
Cc1ccc(S(=O)(=O)N2CCN(CC(=O)NC(=O)NCc3ccco3)CC2)cc1C
  A: nt; B: nt; C: i; D: 1; E: 91; F: nt; G: nt
c1csc(-c2nnsc2-c2nc3ccccc3[nH]2)c1
  A: nt; B: nt; C: ?; D: nt; E: 105; F: 0; G: -0.9
CC(=O)c1c(NCCc2ccccc2)nc(=S)n(-c2ccccc2)c1C
  A: 0; B: 81; C: i; D: 1; E: 219; F: -4; G: nt
O=C(CSc1nnc(CNC(=O)c2ccco2)o1)Nc1ccccc1
  A: -27; B: 162; C: i; D: 0.95; E: 112; F: -5; G: nt
CNc1nc(C)nc(-n2nc(C)cc2C)n1
  A: i; B: 60; C: i; D: 0.99; E: 102; F: -1; G: -2.5
C=CCNc1sc(C(=O)c2cccs2)c(N)c1C#N
  A: nt; B: nt; C: i; D: 1.1; E: 106; F: -4; G: -1.0
Cc1cc(C)nc(N/C(=N\S(=O)(=O)Cc2ccccc2)Nc2ccccc2Br)n1
  A: -107; B: 26; C: i; D: 1; E: 39; F: -9; G: -1.3
Cc1ccc(C(=O)Nc2cccc(C(=O)O)c2)cc1S(=O)(=O)N1CCCCC1
  A: 0; B: 100; C: i; D: 0.99; E: 119; F: -9; G: -0.1
CCN1CCCC1CNS(=O)(=O)c1cc(Br)cc2c1N(C(=O)C1CC1)CC2 (centres undefined)
  A: 0; B: 97; C: i; D: 0.85; E: 99; F: -8; G: -1.1
CCOC(=O)C1=C(c2ccccc2)Nc2ncnn2C1c1cc(OC)cc(OC)c1OC (centres undefined)
  A: nt; B: nt; C: i; D: 0.89; E: 36; F: -8; G: -0.9
O=C1CN2NC(=S)N(c3ccccc3)C2=CN1c1ccc(Cl)cc1
  A: nt; B: nt; C: i; D: 0.98; E: 100; F: 2; G: nt
CNC(=O)C(Sc1nc(C)nc2c1oc1ccccc12)C(C)=O (centres undefined)
  A: 34; B: 82; C: i; D: 1.1; E: 98; F: -6; G: 0.4
